HPGD block – HPGD (human) dehydrogenase inhibition | P15428 | purified HPGD, NADH fluorescence kinetic, PGE2 substrate | Potency, µM, for inactives: top-dose activity change, negative = inhibition, actives largely listed as inhibitors | hit rate 4.3% among 150,000 | AID 894; active = well fitted inhibition curve with a large enough effect (not every such curve was filed as active); inconclusive = small, poorly fitted or top-dose-only effect, or another doubt; inactive = no such curve, though single readings can be large or run the other way;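 further: top concentration of the series not given in the record; plate controls included wells without enzyme; inactives centre near -10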
Target sequence (P15428 whole entry, looked up): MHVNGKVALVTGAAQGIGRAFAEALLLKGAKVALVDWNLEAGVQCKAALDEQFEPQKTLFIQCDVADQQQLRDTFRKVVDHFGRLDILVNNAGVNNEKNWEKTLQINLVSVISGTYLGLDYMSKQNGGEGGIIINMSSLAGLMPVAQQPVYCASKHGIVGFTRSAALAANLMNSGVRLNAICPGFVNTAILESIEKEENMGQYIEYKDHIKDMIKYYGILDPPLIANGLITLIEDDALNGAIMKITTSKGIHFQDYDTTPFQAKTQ
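20 nM HPGD preincubated 15 min at room temperature with compound in 50 mM Tris-HCl pH 8, 0.01% Tween 20. Started with 1 mM NAD+ and 30 uM prostaglandin E2; NADH fluorescence (360/450 nm) read 5 times over 30-s intervals, last minus first.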
Starred values were filed as active, the others as inactive; ? = inconclusive; & = joins results of further samples. On the % scale 0 is the no-effect control and ±100 the full control effect; potency means the concentration at half of the fitted maximal effect. A portion of the library; rates above refer to the full screens.

SMILES	HPGD block
O=C(CNC1=NCCC1)c1ccc2c(c1)OCCO2	-4%
O=c1cc(-c2ccccc2)[nH]n1-c1nc2ccccc2[nH]1	-21%
C=CCOc1ccc(C=Nc2ccc(Cl)cc2)c(O)c1	?
Cc1ccc(C)c(NC(=S)NCc2ccc3[nH]c4c(c3c2)CCCC4)c1	-21%
N=C1C(=O)OCC1c1ccccc1NC(=O)CN1CCOCC1 (configuration not stated)	-3%
O=C(CCc1ccc(Oc2cc([N+](=O)[O-])cc([N+](=O)[O-])c2)cc1)N1CCCCCC1	0.89µM*
COC(=O)c1c(NC(=O)C2CC(=O)NN2Cc2ccccc2)sc(C)c1C (configuration not stated)	-26%
COc1ccc(NC(=O)c2coc3ccccc23)cc1OC	-17%
CCn1c(C(=O)N2CCCC(C(=O)NCCCc3ccccc3)C2)cc2sccc21 (configuration not stated)	-15%
Cc1ccc2nc(-c3ccc(NC(=O)COC(=O)c4ccc(=O)[nH]c4)cc3)sc2c1	?
CCOc1ccc(CN(C)CC(=O)Nc2ccc(N3CCOCC3)cc2)cc1OC	-9%
COc1ccc(-c2csc(Cc3nnc(N4CCOCC4)n3-c3ccccc3)n2)cc1OC	0%
O=C(C[n+]1cc(-c2ccc(F)cc2)n2c1CCC2)N1c2ccccc2Sc2ccccc21	-2%
Cc1occc1C(=O)NCc1ccco1	-22%
COC(=O)Cc1csc(/N=C/c2c(O)n(-c3cccc(C(F)(F)F)c3)c(=O)c3ccccc23)n1	?
COc1cccc(OC)c1C(=O)NC(=S)Nc1ccc2c(c1)C(=O)N(C)C2=O	?
CCn1cc(C(=O)NCCOC)c(=O)c2ccc(C)nc21	-27%
O=C(Nc1ccc(F)cc1)Nc1ccc(Cl)cn1	4%
Cc1ccc(C)c(S(=O)(=O)N/N=C/c2cccnc2)c1	-10%
Cc1ccc(C(O)(C(=O)NNS(=O)(=O)c2ccc(C)cc2)c2ccc(C)cc2)cc1	0%
Cc1cc(C)cc(NC(=O)C2CCCN(c3nc(C)cc(C)n3)C2)c1 (configuration not stated)	-1%
CC1(C)CC(=O)c2sc(NC(=O)C3COc4ccccc4O3)nc2C1 (configuration not stated)	-17%
Cc1oc2c(CN3CCOCC3)c(O)ccc2c(=O)c1-c1ccccc1	?
Cc1noc2ncnc(Sc3ccccc3Cl)c12	-11%
COc1ccccc1NC(=O)c1ccc(NS(=O)(=O)c2ccc(F)c(F)c2F)cc1	-16%
O=C(Cn1c(-c2cscn2)nc2ccccc21)Nc1ccc2ccccc2c1	-9%
COc1cccc(C2CC(=O)N3CN(c4cccc(Cl)c4C)CSC3=C2C#N)c1OC (configuration not stated)	7.9µM*
COc1cccc2c1C(=O)CC(c1ccccc1)O2 (configuration not stated)	?
O=C(Nc1ccccc1)N1CCc2ccccc21	-16%
COc1ccc(C2=C(C)CC(C)(C)NC2=O)cc1OC	-12%
CSCCC1NC(=O)N(CC(=O)Nc2c(Cl)cc(Cl)cc2Cl)C1=O (configuration not stated)	5%
Cc1ccccc1N(CC(=O)NCCSC1CCCCC1)S(=O)(=O)c1ccccc1	-6%
COc1ccc(NC(=O)COC(=O)CCCc2c[nH]c3ccccc23)cc1	-24%
C=CCOC(=O)CN1C(=O)c2ccccc2C1=O	-9%
Cc1ccc(-c2ccc(NC(=O)C3C4C=CC(C4)C3C(=O)O)cc2)o1 (configuration not stated)	20µM*
O=C(NC1CCS(=O)(=O)C1)c1c(NC(=O)C2COc3ccccc3O2)sc2c1CCCC2 (configuration not stated)	-8%
Cc1nnc(SCC(=O)c2cc(C)n(-c3c(C)n(C)n(-c4ccccc4)c3=O)c2C)s1	-7%
N#CC1=C(SCC(=O)c2cc3ccccc3oc2=O)NC(=O)C(C#N)C12CCCC2 (configuration not stated)	?
COc1ccc(Cc2nn3c(Cn4nnc5ccccc54)nnc3s2)cc1	22µM*
COCCn1c(C)cc(C(=O)COC(=O)c2ccc(NC(=O)CC#N)cc2)c1C	-15%
Cc1cccc2cc(CN(Cc3ccc(F)cc3)C(=O)C(F)(F)F)c3nnnn3c12	-14%
Fc1ccc(C(c2nnnn2C2CCCC2)N(Cc2ccco2)CC2CCCO2)cc1 (configuration not stated)	?
COc1cccc(CN(C(=O)c2cc3ccccc3oc2=O)C2CC2)c1	1%
Cc1ccc(C)c(S(=O)(=O)Nc2ccccc2C(=O)Nc2ccc(S(=O)(=O)Nc3ncccn3)cc2)c1	?
CCC(NC(=O)/C(=C\c1ccc2c(c1)OCO2)NC(C)=O)C(=O)O (configuration not stated)	-4%
COc1cccc(NC(=O)CCS(=O)(=O)c2cccs2)c1	-20%
COc1cc(C)ccc1S(=O)(=O)N1CCN(C23CC4CC(CC(C4)C2)C3)CC1	-7%
CCCN(CCC)C(=O)Cn1c(=O)n(CCCCC(=O)NC2CCCC2)c(=O)c2ccccc21	-23%
CCOc1ccc(Nc2ncnc(N)n2)cc1	-13%
CC(C)C(=O)Nc1nnc(CCc2nnc(NC(=O)C(C)C)s2)s1	-3%
O=P(CCNCc1ccco1)(c1ccccc1)c1ccccc1	-6%
O=C(CSc1n[nH]c(-c2cccnc2)n1)Nc1ccccc1	10µM*
O=C(Oc1ccc([N+](=O)[O-])cc1)c1cc(-c2ccccc2)nc2ccccc12	-18%
CCCC(C)NCC(=O)Nc1ccccc1-c1ccccc1 (configuration not stated)	-7%
CCOC(=O)c1c(-c2ccccc2)csc1/N=C/C1C(=O)CCCC1=O	-7%
COCCNC(=O)CN(c1ccccc1OC)S(C)(=O)=O	-1%
Cn1c2ccccc2n2c(=O)c(=O)n(CC(=O)c3ccc(F)cc3)nc12	-13%
O=C1N(O)C2(C=CCCC2)/C(=N\O)C12CCCCC2 (configuration not stated)	-11%
Cc1ccc(NC(=O)NC2(C(=O)NCc3ccccc3)CCCCC2)cc1	-4%
COc1ccc(Oc2cc(C)c3cccc(C)c3n2)cc1	-8%

The list continues:
SMILES	HPGD block
CC(C)CCn1c(SCC(=O)c2ccccc2)nc2c1c(=O)[nH]c(=O)n2C	-5%
NNC(=S)NCc1ccc2c(c1)OCO2	-15%
COc1ccc(C(OC(=O)c2ccco2)C(=O)NC2CCCCC2)cc1 (configuration not stated)	2%
CN(C)c1oc(COc2ccc(F)cc2)nc1C#N	-11%
CCN1CC=C2C(C#N)=C(N)C(C#N)(C#N)[C@H](c3cccc(OC)c3OC)[C@H]2C1	?
CCOC(=O)N1CCN(c2cc(=O)n(-c3ccc(Br)cc3)c(=O)[nH]2)CC1	1%
Cc1ccc(OCC(=O)Nc2ccccc2N2CCOCC2)c(C)c1	-21%
CCOCCCNC(=O)c1ccc2c(c1)N(Cc1ccccc1)C(=O)CS2=O (configuration not stated)	-13%
CCOC(=O)c1c(/N=C/c2ccc(O)cc2O)sc2c1CCC2	-23%
COc1ccccc1CCNC(=O)CCSc1nc(-c2ccco2)cc(C(F)(F)F)n1	-20%
CCCN(CCC)C(=O)Cn1c2ccccc2c2nc(=O)cc(C)n21	-11%
O=C(N/N=C/c1ccc(O)cc1)c1nc(-c2ccccc2)n(-c2ccccc2)n1	-6%
COc1ccc(-c2nc(SC)n(S(=O)(=O)c3ccccc3)n2)cc1	-17%
Cc1c(=O)n(OCc2cccc(F)c2)c2ccccc2[n+]1[O-]	-13%
O=C1CC(c2cccs2)c2cc3c(cc2N1)OCCO3 (configuration not stated)	-10%
Cn1c([N+](=O)[O-])cnc1CN1CCN(CCO)CC1	-8%
CCOC(=O)C1C(=O)CC(C)(O)C(C(=O)OCC)C1c1ccc(Br)cc1 (configuration not stated)	-8%
COc1ccc(CN2CCN(c3ncccn3)CC2)c(OC)c1	7%
O=C(CSc1nnnn1-c1ccccc1F)Nc1nc2ccccc2s1	-7%
c1ccc(OCc2nnc3sc(C4COc5ccccc5O4)nn23)cc1 (configuration not stated)	7.1µM*
c1ccc(-c2csc(Cc3nnc4n3CCCCC4)n2)cc1	-14%
CSc1ccc(-c2nc3cnccn3c2Nc2ccc3c(c2)OCO3)cc1	?
C#CCOCCOCCOCCNc1nc(N2CCN(C(=O)[C@H]([C@@H](C)CC)n3cc(CCCN=C(N)N)nn3)CC2)nc(N2CCN(C(=O)[C@H](C)n3cc(CCCN=C(N)N)nn3)CC2)n1	-9%
CCCCN(Cc1ccccc1)S(=O)(=O)c1ccc2[nH]c(=O)oc2c1	-10%
O=C(COC(=O)CSc1nnc(-c2ccc(Cl)cc2)o1)Nc1cc(Cl)cc(Cl)c1	-5%
COCC(=O)N1CCC2(CCCN(Cc3ccc(C#N)cc3)C2)CC1	-8%
CC(C)(C)NC(=O)CSc1nc2ccccc2n1-c1ccccc1	-20%
Nc1ccc(S(=O)(=O)NNC(=O)C(=O)NNc2ccccc2)cc1	-6%
O=[N+]([O-])c1cc(-c2ccc(/C=N/c3nc4ccccn4c3-c3ccco3)o2)ccc1Cl	?
Cc1cccc(-c2cc(C(=O)NCc3ccccn3)c3ccccc3n2)c1	-25%
COC(=O)[C@@]1(Cc2ccc(OC)cc2)[C@H]2c3cc(C(=O)N(C)C)n(C[C@H](O)CO)c3C[C@H]2CN1C(=O)c1ccccc1	-5%&3%
O=C(CCN(NC(=O)c1ccccc1)C1=NS(=O)(=O)c2ccccc21)NC1CCCCC1	-12%
O=C(O)CN1C(=O)CNC1=O	-4%
CCC(c1nnc(SCC(=O)NC23CC4CC(CC(C4)C2)C3)o1)N(C)C (configuration not stated)	-13%
O=C(CSc1nnc(-c2ccco2)o1)NC1CCCCCC1	-9%
Cc1ccc(/C=C(\C#N)C(=O)Nc2c(C)cccc2C)s1	-9%
NC(N)=Nc1nc2ccc([N+](=O)[O-])cc2[nH]1	-14%
CCCCC1=CC2=C(c3ccco3)C(=O)C(C)(OC(=O)c3ccc(OC)cc3)C(=O)C2=CN1Cc1ccc(OC)cc1 (configuration not stated)	0%
O/N=C1/CCSc2ccccc21	?
CC(=O)N1CCN=C1SCc1cccc(C(F)(F)F)c1	-9%
COC(=O)N1CCC2(CCN(Cc3ccccc3)CC2)CC1	-5%
CCC1CCCCN1C(=O)c1c[nH]c2ccc(S(=O)(=O)N(C)c3ccc(Cl)cc3)cc2c1=O (configuration not stated)	-15%
CCOc1ccccc1NC(=O)C(OC(=O)c1ccc(N(C)C)cc1)c1ccccc1 (configuration not stated)	?
CC(c1ccccc1)N1C(=O)CC(Sc2ncccc2C(=O)O)C1=O (configuration not stated)	7%
COc1ccc(-c2cnc(SCC(=O)Nc3ccc4c(c3)OCO4)n2Cc2ccco2)cc1	-17%
COc1ccc(N=c2cc(-c3ccc(O)cc3)oc3ccccc23)cc1	-6%
O=C(Cc1ccc(-n2cccc2)cc1)NC1CCCCCC1	-23%
O=C(CCN1CCN(c2ccccc2F)CC1)Nc1ccc2c(c1)OCO2	-3%
CCOc1ccc(NC(=O)c2cc3c(=O)n(C)c4ccccc4c3n2C)cc1	?
CC(C)=CCC1=C(O)[C@](O)(CC=C(C)C)C(=O)C(C(=O)CC(C)C)=C1O	-14%
Cn1c(=O)oc2cc(S(=O)(=O)N3CCCC(C(=O)NCCN4CCOCC4)C3)ccc21 (configuration not stated)	-4%
Cn1c(=O)c(C(=O)COC(=O)c2cc(-c3ccco3)nc3ccccc23)c(N)n(CC2CC2)c1=O	?
O=C(CSc1oc(-c2ccco2)nc1S(=O)(=O)c1ccc(F)cc1)NCC1CCCO1 (configuration not stated)	-14%
COC(=O)CSc1snnc1-c1ccc(F)cc1	-18%
CCOC(=O)N1CCc2c(sc3c2c(=O)n(Cc2ccccc2)c(=O)n3Cc2cccc(C)c2)C1	-6%
COc1ccc(NC(=O)C23CC4CC(C2)CC(n2cnc(Br)n2)(C4)C3)cc1Cl	-10%
C=CCn1c(=O)[nH]c2cc(C(=O)N3CCN(c4ccc(C(C)=O)cc4)CC3)ccc2c1=O	?
CNC(=O)C1(CC(C)C)C=CCN1C(=O)c1ccccc1 (configuration not stated)	-10%
COc1cc(/C=N/Nc2ccc(F)cc2F)cc(OC)c1O	-29%
O=C(NCc1ccncc1)/C(=C\c1ccc(F)cc1)NC(=O)c1ccccc1	-2%

(list continues)
SMILES	HPGD block
O=C(NCCNCc1ccc(F)cc1)c1ccco1	-11%
CCCCNC(=O)COc1ccccc1C(=O)c1cc(C#N)c(=O)n(CCOC)c1	-13%
O=C(Cn1nc(C(F)(F)F)c2c1CCC2)NCc1ccc(Cl)cc1	-8%
CC(=O)c1cc(C)ccc1OC(=O)c1cccnc1	2%

Gathered by group: those above containing a cyano group (eight)
SMILES	HPGD block
COc1cccc(C2CC(=O)N3CN(c4cccc(Cl)c4C)CSC3=C2C#N)c1OC (configuration not stated)	7.9µM*
N#CC1=C(SCC(=O)c2cc3ccccc3oc2=O)NC(=O)C(C#N)C12CCCC2 (configuration not stated)	?
COCCn1c(C)cc(C(=O)COC(=O)c2ccc(NC(=O)CC#N)cc2)c1C	-15%
CN(C)c1oc(COc2ccc(F)cc2)nc1C#N	-11%
CCN1CC=C2C(C#N)=C(N)C(C#N)(C#N)[C@H](c3cccc(OC)c3OC)[C@H]2C1	?
COCC(=O)N1CCC2(CCCN(Cc3ccc(C#N)cc3)C2)CC1	-8%
Cc1ccc(/C=C(\C#N)C(=O)Nc2c(C)cccc2C)s1	-9%
CCCCNC(=O)COc1ccccc1C(=O)c1cc(C#N)c(=O)n(CCOC)c1	-13%

Source: PubChem
